motility = Vibrio cholerae motility inhibitors, OD read-out (AID 588778); 10,000 tested, under 10 active; one-dose inhibition, %; IC50 in µg/mL for titrated hits; Vibrio cholerae motility, OD read-out; higher % means a stronger effect; test concentration not given here; primary cut-off and reference of the scale not given here; strong numbers were not always called active; in the data active = confirmed in a dose series
motility viability = second read-out of motility, no call of its own (marks repeat the call); inhibition, %; measured here: bacterial viability at 10 ug/mL;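 higher means fewer living bacteria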
An asterisk follows results filed as active.

The opening 19 entries (preview)
SMILES | motility | motility viability
O=C(CNC(=O)c1ccc(Br)o1)OC(c1ccccc1)c1ccccc1 | 2% | -7
Cc1c(Cl)cccc1NC(=O)CSCc1cc(=O)[nH][nH]1 | 18% | 22
Cc1ccc(-c2cc(C(=O)Nc3nnc(-c4ccncc4)s3)c3ccccc3n2)o1 | 9% | 8
O=C(CCCOc1ccc(Cl)cc1Cl)Nc1ccc2c(c1)C(=O)NC2=O | -4% | -1
COc1cc(/C=C/[N+](=O)[O-])ccc1OC(=O)c1cccnc1 | 56% | 16
O=C(Cc1ccccc1)NCCSC1CCCCC1 | 10% | 1
O=C(Nc1ccc(Oc2cccnc2)cc1)c1ccccc1Cl | -3% | -5
CCOC(=O)c1nc2sc3c(c2c(=O)n1C(C)C(=O)OCC)CCCC3 (centres undefined) | -5% | -2
COCCCNC(=S)Nc1ccc(OC(F)F)cc1C | 5% | 1
CCOC(=O)NC(=O)CSc1nc2ccccc2[nH]1 | 27% | 4
FC(F)(F)c1c2c(nc3c(-c4ccc(Cl)cc4)cnn13)CCC2 | -7% | -6
NC(=O)C1CCN(C(=O)NC2CCCCC2)CC1 | 6% | -10
CC1=C(Cl)c2ccc(Cl)cc2S1(=O)=O | -14% | -10
O=[N+]([O-])c1c(Nc2cc(Cl)ccc2Cl)cc(N2CCOCC2)c2nonc12 | -3% | -4
CCOC(=O)Nc1ccc(-c2ccc(NC(=O)OCC)c(OC)c2)cc1OC | -5% | -3
Cc1[nH]c(=O)[nH]c(=O)c1NC(=O)C(C)(C)C | -13% | -9
CN(c1ccc(C(=O)NCCC2=CCCCC2)cc1)S(C)(=O)=O | -1% | -1
Cc1ccccc1OCCSc1nnnn1-c1ccccc1 | 12% | 1
CCOC(=O)C1=C(C)NC(=S)NC1c1ccco1 (centres undefined) | -24% | -15

The listing, from the first entry:
SMILES | motility | motility viability
O=C(CNC(=O)c1ccc(Br)o1)OC(c1ccccc1)c1ccccc1 | 2% | -7
Cc1c(Cl)cccc1NC(=O)CSCc1cc(=O)[nH][nH]1 | 18% | 22
Cc1ccc(-c2cc(C(=O)Nc3nnc(-c4ccncc4)s3)c3ccccc3n2)o1 | 9% | 8
O=C(CCCOc1ccc(Cl)cc1Cl)Nc1ccc2c(c1)C(=O)NC2=O | -4% | -1
COc1cc(/C=C/[N+](=O)[O-])ccc1OC(=O)c1cccnc1 | 56% | 16
O=C(Cc1ccccc1)NCCSC1CCCCC1 | 10% | 1
O=C(Nc1ccc(Oc2cccnc2)cc1)c1ccccc1Cl | -3% | -5
CCOC(=O)c1nc2sc3c(c2c(=O)n1C(C)C(=O)OCC)CCCC3 (centres undefined) | -5% | -2
COCCCNC(=S)Nc1ccc(OC(F)F)cc1C | 5% | 1
CCOC(=O)NC(=O)CSc1nc2ccccc2[nH]1 | 27% | 4
FC(F)(F)c1c2c(nc3c(-c4ccc(Cl)cc4)cnn13)CCC2 | -7% | -6
NC(=O)C1CCN(C(=O)NC2CCCCC2)CC1 | 6% | -10
CC1=C(Cl)c2ccc(Cl)cc2S1(=O)=O | -14% | -10
O=[N+]([O-])c1c(Nc2cc(Cl)ccc2Cl)cc(N2CCOCC2)c2nonc12 | -3% | -4
CCOC(=O)Nc1ccc(-c2ccc(NC(=O)OCC)c(OC)c2)cc1OC | -5% | -3
Cc1[nH]c(=O)[nH]c(=O)c1NC(=O)C(C)(C)C | -13% | -9
CN(c1ccc(C(=O)NCCC2=CCCCC2)cc1)S(C)(=O)=O | -1% | -1
Cc1ccccc1OCCSc1nnnn1-c1ccccc1 | 12% | 1
CCOC(=O)C1=C(C)NC(=S)NC1c1ccco1 (centres undefined) | -24% | -15
Cn1nnnc1Sc1ccc([N+](=O)[O-])c2ncccc12 | 93% | 32
CC(C)(C)c1ccc(C(=O)Nc2ccc(NC(=O)C(=O)O)cc2)o1 | 6% | 0
Cc1nonc1OCCNC(=O)C12CC3CC(CC(C3)C1)C2 | 19% | -2
COc1cc(NS(=O)(=O)c2ccc(NC(=O)c3ccc(S(=O)(=O)N4CCOCC4)cc3)cc2)ncn1 | -13% | -2
Cc1nn(C)c(C)c1S(=O)(=O)NCc1ccccc1Br | -4% | -6
O=C(Nc1cnn(Cc2ccc(F)cc2)c1)c1ccc(Br)o1 | 3% | 1
Remaining list, next part
SMILES | motility | motility viability
CC(=O)c1ccc(NC(=S)NC(NC(=O)N(C)C)C(Cl)(Cl)Cl)cc1 (centres undefined) | -7% | -2
CCOc1ccc(C2CC(=O)n3nc(C45CC6CC(CC(C6)C4)C5)nc3S2)cc1OC (centres undefined) | 4% | 0
O=C(O)CCCC(=O)Nc1ccc(OCc2nc3ccccc3s2)cc1 | 8% | 2
O=C(Nc1ccc(Cl)cc1F)c1cccc2ccccc12 | 4% | 20
O=C(Nn1cnnc1)c1cc(Br)ccc1Cl | -5% | -3
O=C(Cc1ccc(Cl)cc1)OCc1ccc(S(=O)(=O)c2ccccc2)cc1 | 1% | -9
COc1cc(-c2n[nH]c(=O)o2)cc(OC)c1OC | -6% | -3
O=C(Nc1ccc(Cl)cc1)c1cc(S(=O)(=O)Nc2ccccn2)ccc1Cl | 4% | 4
CC(=O)Oc1ccc(S(=O)(=O)c2ccc(OC(C)=O)c(OC(C)=O)c2)cc1OC(C)=O | 103% | 31
O=C(c1cccs1)N(Cc1ccco1)C1CCS(=O)(=O)C1 (centres undefined) | 2% | 0
Oc1ccc(Oc2ncc(Cl)cc2Cl)cc1 | -1% | -4
O=C(Nc1nc2nc(-c3ccccc3)cc(=O)n2[nH]1)c1cccs1 | 8% | -2
COc1nc(Nc2cccc([N+](=O)[O-])c2)nc(OC)n1 | -5% | -4
CCC(=O)N1c2ccc3ccccc3c2C2C=CCC2C1c1ccc(F)cc1 (centres undefined) | 3% | -1
Cc1cc(Br)cc(C)c1NC(=S)NC(=O)c1ccc(F)cc1Cl | -20% | 1
CCN(CC)C(=O)c1sc(NC(=O)c2cc(-c3ccc(C)s3)nc3ccccc23)c(C#N)c1C | -3% | -7
CC(=O)Oc1nnc2ncn(-c3ccccc3)nc1-2 | -2% | -3
C=CCN1C2=NC(=O)CN2c2ccccc21 | 9% | 1
CC(=O)c1ccccc1OC(=O)COc1ccc(Cl)cc1C | -2% | -1
CC(NC(=S)Nc1ccc2c(c1)OCO2)C1CCCO1 (centres undefined) | -1% | -2
N#C/C(=C\C=C\c1ccccc1Cl)c1nc2ccccc2[nH]1 | -2% | -4
CN1/C(=C/C2CC(=O)NC2=O)C(C)(C)c2ccccc21 (centres undefined) | 10% | -3
COC(=O)c1oc2c(c1C)C(=O)CC(C)(C)C2 | 1% | 1
COc1cc2sc(N)nc2cc1Cl | -6% | -7
Cc1cc(-c2cccnc2)c(C#N)c(SCc2cccc(F)c2)n1 | -2% | -9
Next section:
SMILES | motility | motility viability
O=C(NC(=S)Nc1cc(C(F)(F)F)ccc1N1CCCC1)c1ccco1 | 6% | 22
O=C(COc1ccc(F)cc1)Nc1cccc([N+](=O)[O-])c1 | -11% | 16
Cc1ccc(SCC(=O)Nc2ccc(Cl)c(C(F)(F)F)c2)cc1 | 3% | -3
CSCCC(NC(=O)c1c(C)oc2c1CCCC2)C(=O)O (centres undefined) | 112% | 40
O=C(Cn1c(-c2ccccn2)nc2ccccc21)NCCN1CCOCC1 | -12% | -2
O=C(NNC(=S)Nc1ccccc1Cl)C(c1ccccc1)c1ccccc1 | 16% | 3
CS(=O)(=O)c1ccc(N2CCOCC2)c(S(C)(=O)=O)c1 | 6% | -4
COC(=O)c1ccc(Cl)c(NC(=O)NC23CC4CC(CC(C4)C2)C3)c1 | 7% | 10
COc1ccc(-c2csc3nc(-c4cccc5ccccc45)oc(=O)c23)cc1OC | -2% | 3
Cc1sc(NC(=O)c2ccc(S(=O)(=O)N(C)C)cc2)nc1-c1ccccc1 | -21% | -8
Cc1ccccc1OCCCn1c(C)c(C#N)c2ccccc21 | -15% | -11
O=C(CC(c1ccc(Cl)c(Cl)c1)C1CCCCC1=O)c1ccccc1 (centres undefined) | -5% | -6
Cc1ccc(-c2cc(C(=O)O)c3ccccc3n2)o1 | 2% | -3
CC(=O)c1ccc(N2CCN(C(=O)c3cc(F)c(F)cc3Cl)C(C)C2)c(F)c1 (centres undefined) | -7% | 5
O=C(Cc1ccccc1F)N1CCN(c2ccccc2)CC1 | 25% | 7
Cc1nnc(SCc2ccc(C(=O)Nc3cc(Cl)ccc3C)cc2)s1 | -7% | -1
COc1cc(C)ccc1OCCOc1cccc2ccccc12 | -9% | -9
CCC(=O)c1ccc(OCC(=O)Nc2ccc(C)c(Cl)c2)cc1 | -2% | 0
O=C1CCCN1C(=O)c1ccc(F)cc1 | 0% | -11
Cc1ccc(C2=[N+]([O-])C(C)N(O)C2(C)C)o1 (centres undefined) | 0% | 6
CCCCc1cc(=O)oc2cc(OS(=O)(=O)c3ccccc3)c(Cl)cc12 | -2% | -7
Cc1cc(NC(=O)NC(C(F)(F)F)C(F)(F)F)no1 | 7% | 0
COC(=O)C1C(=O)NC(SCc2ccc(Cl)cc2Cl)=C(C#N)C1c1ccc(OC)cc1 (centres undefined) | -9% | -5
O=C(Nc1cccc2nsnc12)c1ccc(F)cc1F | 13% | -8
COc1ccc(NC(=O)CSc2nnc(C)s2)c([N+](=O)[O-])c1 | 4% | -1
(continued)
SMILES | motility | motility viability
COC(C(=O)Nc1ccc(S(=O)(=O)Nc2cccc(Cl)c2C)cc1)c1ccccc1 (centres undefined) | 7% | -4
O=C(OCc1ccc(S(=O)(=O)N2CCOCC2)cc1)c1ccc2c(c1)-c1ccccc1C2=O | -5% | -4
O=C(NC(=S)Nc1cccc(NC(=O)c2cccc(Cl)c2)c1)c1ccc2ccccc2c1 | -7% | 1
CCC(=O)N1N=C(c2c(-c3ccccc3)c3cc(Cl)ccc3[nH]c2=O)CC1c1ccco1 (centres undefined) | -2% | -13
O=C(Oc1ccc2c(c1)CCCC2)c1ccc(Cl)cc1 | 17% | 0
N#CC1=C(N=Cc2ccc(Br)cc2)c2ccccc2CC12CCCCC2 | -3% | -2
Cc1ccc(C(=O)OCC(=O)c2ccc(Br)cc2)cc1S(=O)(=O)N1CCCC1 | -7% | -13
CSc1nc(C)c(C(C)=O)cc1C#N | 2% | -4
NS(=O)(=O)c1ccc(CCNC2CC(=O)N(Cc3ccc(Cl)cc3)C2=O)cc1 (centres undefined) | 13% | 0
Cc1ccc(C(=O)Nc2ccccn2)cc1S(=O)(=O)N1CCCCC1 | 11% | 1
CC(NC(=O)C12CC3CC(CC(C3)C1)C2)c1ccc2c(c1)OCCO2 (centres undefined) | -4% | 1
O=C(NNC(=S)Nc1ccc2c(c1)OCO2)C(Sc1ccccc1)c1ccccc1 (centres undefined) | 4% | 33
CC1(C)C2CCC1(C)C(NCc1ccccc1O)C2 (centres undefined) | 18% | 38
O=C(NNC(=S)Nc1ccccc1C(F)(F)F)c1ccc(Br)o1 | 21% | 1
O=C1NN(c2cccc(Cl)c2)C(=O)/C1=C\c1ccc(-c2ccc(Br)cc2)o1 | -1% | -4
Cc1cc(C(=O)c2ccccc2)ccc1OC(=O)C(C)(C)C | 29% | 5
CC1=C(C(=O)Nc2nc3ccccc3s2)C(c2ccc(F)cc2)C2=C(CCCC2=O)N1 (centres undefined) | -5% | 1
CC(=O)c1cnc2c(-c3cccc(Br)c3)cnn2c1C | 4% | -9
CCN1C(=O)CC(NCc2ccc3c(c2)OCO3)C1=O (centres undefined) | -2% | -5
O=C(Cc1ccc2c(c1)CCCC2)NC1CCCCC1 | -4% | -5
CCNc1nc(NCC)nc(SCCOc2ccc(Br)cc2)n1 | -8% | -1
FC(F)(F)c1cc(-c2ccccc2)nc(NCC2CCCO2)n1 (centres undefined) | 5% | 0
O=C(C1CCN(Cc2ccccc2F)CC1)N1CCN(C/C=C/c2ccccc2)CC1 | 14% | 1
O=C(c1ccncc1)N1CCN(c2cccc(Cl)c2)CC1 | 14% | -2
O=C1CC(CSc2nnnn2-c2ccccc2)=NN1 | 6% | 6
Additional compounds
SMILES | motility | motility viability
O=S(=O)(Cc1ccccc1)Nc1ccc(Br)cc1F | 28% | 3
O=C(Nc1cccnc1)c1cccc(COc2ccccc2Cl)c1 | 31% | 18
Cc1ccc2cccc(OCCCOc3ccccc3I)c2n1 | 6% | -1
COC(=O)c1sc2nc(-c3ccccc3)nc(N)c2c1C | -7% | -7
O=C(NCc1cccs1)c1cc(Br)ccc1Cl | -4% | -4
O=C(Nc1ccccc1)Nc1ccc2c(c1)nc1n2CCN(Cc2ccccc2)C1 | 7% | -3
COc1ccc(C(Nc2ncnc3c2ncn3C2CC=C(CO)CC2)(c2ccccc2)c2ccccc2)cc1 (centres undefined) | 2% | -1
CC(C)(C)C(=O)Nc1scc(-c2cccs2)c1C(=O)O | 0% | 4
O=C(Nc1ccc(S(=O)(=O)NCCc2ccccc2)cc1)c1ccccc1F | -4% | -2
N#C/C(=C/c1cccc(C(F)(F)F)c1)c1ccc([N+](=O)[O-])cc1 | 31% | 11
CCOc1ccc(NC(=O)C2CC(=O)NC(N3CCc4ccccc43)=N2)cc1 (centres undefined) | -19% | -16
c1ccc(CC2CCN(c3nc(N4CCOCC4)nc(N4CCOCC4)n3)CC2)cc1 | 6% | -1
O=C1C2C3CCC(C3)C2C(=O)N1c1nccs1 (centres undefined) | -11% | -7
O=C(COc1ccc(F)cc1F)Nc1ccc2c(c1)OCO2 | 11% | -2
COc1ccc(NC(=S)NC(NC(=O)Cc2ccccc2)C(Cl)(Cl)Cl)cc1OC (centres undefined) | 16% | 26
Cc1ccc2cc(CN(Cc3ccco3)C(=O)C3CCCO3)c(=O)[nH]c2c1 (centres undefined) | -3% | -5
c1ccc(Cn2ccnc2-c2ccco2)cc1 | -8% | -8
OC1(C(F)(F)F)CC(c2ccc(Cl)cc2)=NO1 (centres undefined) | -6% | -3
CC(C)(C)C(=O)Oc1ccc(C(=O)Nc2cc(Cl)ccc2Cl)cc1 | -1% | 3
Cc1cc(C)nc(Nc2nc3ccccc3c(=O)[nH]2)n1 | -6% | -4
COc1cc(OC)c(NC(=O)c2csc3ccccc23)cc1Cl | 4% | 1
Nc1cnc2c3c(sc2n1)CCCC3 | 21% | -1
CC1(C)CC(=O)c2cnc(NC(=O)CSc3nc4ccccc4o3)nc2C1 | -8% | -3
c1ccc2nc(-c3nc4ccccc4o3)ccc2c1 | 8% | -6
Cc1nn(Cc2ccc(Br)cc2)c(C)c1NC(=O)c1nn(C)cc1Cl | -4% | 0

This is a subset; the hit share may differ from the screen's.
